# Compound activity deposited in PubChem BioAssay by National Center for Advancing Translational Sciences (NCATS).
# Vaccinia Venus – inhibitors of vaccinia virus (Venus reporter); Potency, µM (titrated, usually from 36.5 µM), inactives show top-dose activity change, negative = inhibition, actives largely listed as inhibitors; Vaccinia virus Venus reporter expression, fluorescence; actives 0.46% (n = 330,000); AID 720580; active means well fitted inhibition curve with a large enough effect; inconclusive means small, poorly fitted or top-dose-only effect; inactive means no such curve, though single readings can be large or run the other way; tested in A549 cells; note: nearly all actives have a fitted effect of over 30% in size; inactives centre near -10
# VACV mCherry inh – inhibitors of vaccinia virus infection (mCherry reporter signal); actives 0.63% (n = 310,000); Potency, µM (titrated, usually from 36.5 µM), without a hit: at the highest dose activity change, negative = inhibition, actives largely listed as inhibitors; Vaccinia virus mCherry reporter infection, fluorescence; about a quarter of the inactives have no number; active = well fitted inhibition curve with a large enough effect; inconclusive = small, poorly fitted or top-dose-only effect; inactive = no such curve, though single readings can be large or run the other way; tested in A549 cells; note: nearly all actives have a fitted effect of over 35% in size; inactives centre near -10
# * hit, by the source's call; i = inactive; ? = inconclusive; · = not tested or not shown; & = joins results of further samples; [ ] = another dose, or the depositor's remark. % is set by controls: 0 for no effect and ±100 for the full control effect; potency is the fitted concentration of half-maximal effect.
# Results follow in this order: Vaccinia Venus	VACV mCherry inh
C=CCSc1nnc2c(n1)OC(c1cccnc1)Nc1ccccc1-2 (stereo unspecified)
  -1%	i
COC(=O)[C@@H](Cc1ccccc1)NS(=O)(=O)N[C@H](Cc1ccccc1)C(=O)OC
  -16%	-3%
COc1cc(/C=N/N=C(/N)c2nonc2N)cc(Br)c1OCc1ccccc1C
  -22%	-21%
COc1cccc(C(O)c2nc(-c3ccc(OC)nc3)cs2)c1 (stereo unspecified)
  1%	53%[activator]
CCc1nc(N2CCCC2)c(C#N)c2c1CCCC2
  2%	-11%
Cc1ccccc1NS(=O)(=O)c1ccc(OCC(=O)N2CCCC2)cc1
  -2%	·
O=C(NCC(c1ccco1)N1CCOCC1)c1c(F)cccc1F (stereo unspecified)
  0%	-15%
CO[C@H]1C[C@@H]2CC[C@@H](C)[C@@](O)(O2)C(=O)C(=O)N2CCCC[C@H]2C(=O)OC([C@H](C)C[C@@H]2CC[C@@H](O)[C@H](OC)C2)CC(=O)[C@H](C)/C=C(\C)[C@@H](O)[C@@H](OC)C(=O)[C@H](C)C[C@H](C)/C=C/C=C/C=C/1C (stereo partly specified)
  -24%	-26%
COCCCNc1nccn2ccnc12
  0%	4%
O=C(C[C@H]1C(=O)N(c2ccccc2)C[C@@H]1Cc1ccccc1)Nc1ccccc1
  0%&-19%	-20%
O=C(O)c1cccc2c(-c3ccccc3)c(-c3ccccc3)[nH]c12
  2%	i
CC(=O)NCc1ccc(S(=O)(=O)NC(C(=O)O)C(C)C)cc1 (stereo unspecified)
  0%	i
CN(C)/C=C(\C#N)S(=O)(=O)C(C)(C)C
  -14%	i
CC1(C(=O)NCc2ccc3c(c2)OCO3)CCN1C(=O)Cc1ccc(Cl)cc1Cl (stereo unspecified)
  -8%	28%
Oc1c(C(c2ccccc2F)N2CCOCC2)sc2nc(-c3ccco3)nn12 (stereo unspecified)
  0%	-11%
OCC12CO[C@@H]3c4ccccc4[C@H](OC1)N32 (stereo partly specified)
  -11%	·
Cc1ccc(N2CCN(S(=O)(=O)c3nnc(NC(=O)c4ccccc4)s3)CC2)cc1
  -21%&-13%	-7%&-12%
COc1ccc(CN2CCOc3ccc(C(O)c4cccnc4)cc3C2)c(OC)c1OC (stereo unspecified)
  8%	-2%
Cc1c(NC(=O)CCC2CCCCC2)c(=O)n(-c2ccccc2)n1C
  -11%	-12%
CC(Nc1n[nH]c(=O)[nH]c1=O)C(=O)N/N=C/c1cccs1 (stereo unspecified)
  -9%	-9%

# In a second layout: results already given.
SMILES	Vaccinia Venus	VACV mCherry inh
Cc1ccccc1NS(=O)(=O)c1ccc(OCC(=O)N2CCCC2)cc1	-2%	·
O=C(NCC(c1ccco1)N1CCOCC1)c1c(F)cccc1F (stereo unspecified)	0%	-15%

# New compounds follow:
# Results follow in this order: Vaccinia Venus	VACV mCherry inh
Fc1ccc(CSc2nc(NCc3ccccc3)c3ccccc3n2)cc1
  -9%	-10%
COc1ccc(OC)c(NC(=O)CSc2sc3c(O)cc(=O)[nH]c3c2C#N)c1
  5%	3%
COC(=O)[C@H](Cc1ccccc1)NS(=O)(=O)c1ccc(F)cc1Br
  0%	i
CC(=O)N1CCc2c(sc(NC(=O)C3CC3)c2-c2nc3ccccc3s2)C1
  ?	?
COc1cc(C2CC(=O)c3c([nH]c(C(=O)OC4CCCCC4)c3C)C2)cc(OC)c1OC (stereo unspecified)
  ?	-17%
CCn1c(/C=C/c2ccccc2Cl)nc2ccccc2c1=O
  -13%	-27%
CCc1ccc(C(C)NC(=O)/C=C/c2ccc(Br)cc2)cc1 (stereo unspecified)
  -13%	-9%
CCn1c(CN(C)c2ccccc2)nc2ccccc21
  -14%	-17%
O=C(Cc1cccc(NC(=O)C2CCN(C(=O)CCc3ccccc3)CC2)c1)Nc1cccc(C(=O)N2CCCC2)c1
  -12%	-4%
COc1ccc(C(=O)Nc2ccc(C)cn2)c(OC)c1
  -13%	31%[activator]
c1ccc2c(c1)CCN2CCN1CCc2ccccc21
  -7%	·
CC1(C(=O)Nc2ccc3c(c2)OCCO3)CN(S(C)(=O)=O)CC(=O)N1C1CCCCCC1 (stereo unspecified)
  4%	-15%
c1ccc2c(c1)Nc1ccncc1S2
  -27%	?
CCOc1ccc(S(=O)(=O)Nc2ccc(OC)nc2)cc1
  -13%	-24%
Cc1cc(NC(=O)c2ccc(Br)o2)ccc1NC(=O)c1ccco1
  4%	-6%
Cc1nc(SC2CCOC2=O)c2c(C)c(C)sc2n1 (stereo unspecified)
  -23%	-2%
COc1ccc(C(=O)NCc2nnc(SCC(=O)NCc3ccc(F)cc3)o2)cc1
  3%	-3%
O=C(/C=C/[C@H]1O[C@@H](n2ccc(=O)[nH]c2=O)[C@H](O)[C@@H]1O)NCCN1CCCC1
  2%	2%
CCCOc1ccc(C2=CSC3=NCCN23)cc1[N+](=O)[O-]
  -22%	i
O=C(CN(CC1CCCO1)C(=O)CNS(=O)(=O)c1ccc(F)cc1)NCc1ccco1 (stereo unspecified)
  -3%	6%
Cc1cccc(OCC(=O)NCc2ccncc2)c1C
  -13%	i
COc1ccc(N2CC(=O)N(c3ccc(OC)c(OC)c3)CC2=O)cc1OC
  -15%	·
CCN1C(=O)CC(N2CCN(c3cccc(OC)c3)CC2)C1=O (stereo unspecified)
  -8%	i
CCc1ccc(NC(=O)C(=O)NCC(c2cccnc2)N2CCc3ccccc3C2)cc1 (stereo unspecified)
  -29%	-24%
O=C(O)C1CCCCC1C(=O)Nc1cccc(Br)c1 (stereo unspecified)
  -10%	i
O=C(Nc1ccc(F)cc1F)c1cc(=O)n(-c2ccccc2)c(=O)[nH]1
  3%	i
Cc1ccc([C@@H]2CC=C(C(=O)O)[C@H](c3ccccc3)N2S(=O)(=O)c2ccccc2C)cc1
  -16%	i
CCOC(=O)c1ccccc1NC(=O)COC(=O)CCC1CCCC1
  -3%	-12%
COc1ccccc1N1CCN(C(=O)c2nc(SC)ncc2Cl)CC1
  -10%	-25%
NC(=O)[C@@H]1CCCCNc2c(F)cc([N+](=O)[O-])cc2C(=O)N[C@@H](CCCN=C(N)N)C(=O)NCC(=O)N1
  -13%	i
CC(C)(C)C(=O)n1nc(-c2ccccc2)oc1=O
  -10%	-12%
CN(C)C1=NC[C@H](Cc2ccccc2)N1CC1CCCCCC1
  -25%	i
CCN(CC)S(=O)(=O)c1ccc(N2CCOCC2)c(NC(=O)C23CC4CC(CC(Cl)(C4)C2)C3)c1
  -21%	-4%
COc1ccccc1NC(=O)CN1C(=O)CC(c2ccc(C)c(C)c2)=Nc2ccccc21
  -6%	-10%
Cc1ccc(NC(=O)CN(C)S(=O)(=O)c2ccc3[nH]c4c(c3c2)CCCC4)c(Cl)c1
  -5%	-14%
CC(C)NC(=O)N(C)C[C@@H]1Oc2c(NC(=O)Nc3ccccc3)cccc2C(=O)N([C@H](C)CO)C[C@H]1C
  -15%	?
O=C(Oc1c(-c2ccccc2)c(=O)n2c3c(cccc13)CC2)c1ccc(F)cc1
  -4%	-10%
O=C1/C(=C\c2ccc(O)cc2)SC(=S)N1Cc1ccccc1
  i	-5%
C[C@@H]1CCCCO[C@@H](CN(C)CC2CC2)[C@@H](C)CN([C@H](C)CO)C(=O)c2cc(N(C)C)ccc2O1
  -12%	-9%
CC(C)(C)c1ccccc1OCCCCN1CCCC1
  -6%	·

# Two of these compounds, set out differently.
COc1cc(/C=N/N=C(/N)c2nonc2N)cc(Br)c1OCc1ccccc1C
  Vaccinia Venus: -22%
  VACV mCherry inh: -21%
COc1cccc(C(O)c2nc(-c3ccc(OC)nc3)cs2)c1 (stereo unspecified)
  Vaccinia Venus: 1%
  VACV mCherry inh: 53%[activator]

# Following part
# Results follow in this order: Vaccinia Venus	VACV mCherry inh
Cc1noc(NS(=O)(=O)c2ccc(NC(=O)Cc3ccc([N+](=O)[O-])cc3)cc2)c1C
  -13%	0%
CC(NC(=O)CN(Cc1ccccc1)S(=O)(=O)c1ccccc1)c1cccnc1 (stereo unspecified)
  -12%	-12%
Cc1ccc(S(=O)(=O)N2CCN(CCc3ccccc3)CC2)c(C)c1
  ?	?
CC1(C(=O)Nc2ccc3ccccc3c2)CC1(Br)Br (stereo unspecified)
  14%	i
Cc1oc(-c2cccc(Cl)c2)nc1CN1CCC(C(=O)NCc2ccc(F)cc2)CC1
  -9%	-16%
CCC(=NCc1cccnc1)c1c(O)n(-c2ccc(Cl)cc2)c(=O)[nH]c1=O
  -12%	-26%
CCN(C(=O)COC(=O)Cn1c(C)csc1=O)c1c(N)n(Cc2ccccc2)c(=O)[nH]c1=O
  -19%	-1%
CCc1ccccc1NC(=O)N1CCN(C(=O)c2nsc3ccccc23)CC1
  -10%	-11%
COc1ccc(NC(=O)C2CCCN(S(=O)(=O)c3cn(C)cn3)C2)cc1Cl (stereo unspecified)
  -9%	-15%
COc1ccccc1NCC(=O)c1ccc(C)c(C)c1
  -5%	-26%
O=C(N/N=C/c1cccnc1)c1ccccc1OCc1ccc(Br)cc1
  -13%	-18%
COc1ccc(OC)c(NC(=O)c2cc3c(=O)oc4ccccc4c3s2)c1
  7%	-3%
CCOC(=O)C1=CCN(S(=O)(=O)c2ccc(C)cc2)C1c1ccc(C(C)C)cc1 (stereo unspecified)
  4%	i
CC(C)(C)NC(=O)NC(=O)COC(=O)C1(C)CC1(Cl)Cl (stereo unspecified)
  -12%	i
CSC1=NC2(CCN(C(=O)NC3CCCCC3)CC2)N=C1c1ccc(C(C)(C)C)cc1
  -30%	-26%
O=C(Nc1cccc2c1CCCC2)c1ccc(Br)o1
  -13%	-2%
O=C1NC(=O)N(c2ccc3c(c2)OCO3)C(=O)/C1=C/c1ccc(N2CCCCC2)o1
  -4%	·
O=C(N/N=C\c1cn(-c2ccccc2)nc1-c1ccccc1)c1ccc(Br)o1
  -29%	?
Cc1ccc(NNC(=O)c2cccs2)cc1Cl
  -5%	-17%
C/C=C/c1cnc2c(c1)C(=O)N([C@@H](C)CO)C[C@H](C)[C@@H](CN(C)S(=O)(=O)c1ccc(C)cc1)O2
  ?	-15%
CCC1(C2=CCCCC2)C(=O)NC(=S)N=C1N (stereo unspecified)
  0%	-14%
O=C(NCCNc1ccc([N+](=O)[O-])cc1)c1ccco1
  2%	-9%
COc1ccc2[nH]c(=O)c(CN(CC3CCCO3)S(=O)(=O)c3ccccc3)cc2c1 (stereo unspecified)
  -5%	-2%
Cc1cccc(C(=O)Nc2ccc(C(=O)N3CCCCC3C)cc2)c1 (stereo unspecified)
  -14%	-1%
Cc1ccc(C)c(NC(=O)CN(C)C(=O)Cc2coc3cc(C)c(C)cc23)c1
  -2%	-21%
CC(C)(C)C1CCc2c(sc(NC(=O)C3CCCO3)c2C(N)=O)C1 (stereo unspecified)
  ?	?
NC(N)=NN=C1CCCCCCCCCCC1
  -17%	-20%
Cc1cccn2c(CN(C)CCC3CCCCO3)c(C(=O)N3CCCCC3)nc12 (stereo unspecified)
  -6%	i
COc1ccc(CCNC(=O)CSc2nncn2N)cc1OC
  -6%	-13%
Cc1ccc(C(=O)C(NC(=O)c2ccco2)N2CCOCC2)cc1 (stereo unspecified)
  -5%	-4%
Cc1ccc(C)c(NC(=O)CN(C)C(=O)c2ccc(-c3cccc(C(F)(F)F)c3)o2)c1
  -6%	-23%
ClC1=C(Cl)[C@]2(Cl)[C@@H]3[C@H]4C[C@H]([C@@H]5O[C@H]45)[C@@H]3[C@@]1(Cl)C2(Cl)Cl
  0%	i
O=C(NC(CO)c1ccccc1)c1ccco1 (stereo unspecified)
  -10%	-11%
COc1ccc(-c2nc3c(C#N)c[nH]n3c2NC2CCCC2)cc1
  ?	-4%
CC1(C)Cc2ccccc2C(NNC(=O)c2cccnc2)=N1
  -5%	·
COCCc1ncc(CN2CCC(C(=O)Nc3ccc(-n4cccn4)cc3)CC2)cn1
  -1%	i
COc1ccc(-n2c(C)nc3cc(C(=O)NC4CCCCCC4)ccc32)cc1
  -11%	-12%
CCCCN(C)C(=O)C1CCC(CNS(=O)(=O)c2ccc(Cl)cc2)CC1 (stereo unspecified)
  -18%	i
O=C(c1cc(C2CCCCN2S(=O)(=O)c2ccc(F)cc2F)on1)N1CCOCC1 (stereo unspecified)
  -10%	i
O=[N+]([O-])c1ccc(S(=O)(=O)N(CC(O)CN2CCCCC2)c2ccccc2)cc1 (stereo unspecified)
  -1%	-1%
CC(C)COc1ccc(C(=O)OC2CC(C)(C)OCC2CN(C)C)cc1 (stereo unspecified)
  ?	·
COc1cc(/C=C2/NC(=O)N(Cc3ccccc3F)C2=O)ccc1Oc1ccc([N+](=O)[O-])cn1
  -10%	i
Cc1ccc(NC(=O)C(OC(=O)c2ccc(C=O)cc2)c2ccccc2)cc1Cl (stereo unspecified)
  -6%	-6%
CCN(c1ccccc1)S(=O)(=O)c1cc(C(=O)OCC(=O)c2c(N)n(C)c(=O)n(C)c2=O)ccc1C
  -24%	-7%
COc1ccc(C(CNC(=O)COc2ccccc2)N2CCOCC2)cc1 (stereo unspecified)
  -1%	-10%
CCCc1nn(-c2cc(Cl)ccc2OC)c2c1C(=O)CCC2
  -26%	i
CCN(CC)CCN(CC)c1ccc(/C=C/c2ccnc3ccccc23)cc1
  11%	-15%

# Hits appear at their usual frequency; any-hit rate near 0.82%.
